Mtb hypoxia inh = reduces hypoxia-regulated biosensor signal in M. tuberculosis; M. tuberculosis hypoxia-regulated fluorescent reporter, fluorescence; fluorescence inhibition, % (test concentration not listed); 0.1% of 300,000 active;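 active means 35 to 45% if threefold the growth effect, above 45% if 1.5-fold the growth effect; inactive means the rest, general growth blockers included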;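 further: wells of about 50 µL received 100 nL stock; 0% = vehicle wells and 100% = reference inhibitor wells; whole bacteria with a GFP reporter of the hypoxia response; strong numbers were not always called active; many hits fall short of the cut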
RN4220 kill = kills Staphylococcus aureus RN4220. S. aureus RN4220 growth, OD600, 16 h. 0.33% of 330,000 active. inhibition, % (no concentration beside the values);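 active means z-score of -3 or lower and OD600 up to 0.18 on both plates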;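 further: plate controls were untreated cells for no effect and reference antibiotic for full effect; stock transfer was 100 nL into about 80 µL; one replicate is shown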
BJeLR lethal = BJeLR cell viability loss; BJeLR (HRASV12) viability, CellTiter-Glo ATP luminescence, 48 h; reference of the scale not given here; inhibition, % (concentration not given with the values); 0.17% of 300,000 active; AID 1554;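 active means replicate mean above 50%; inconclusive means above 50% but judged a plate artefact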;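 further: 50 nL library stock added to about 25 µL; numbers are from one replicate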
PrP UTR inh = inhibition of PrP 5' UTR reporter expression; 0.35% of 340,000 active; cell-based PrP 5' UTR mRNA reporter, plate reader; AID 488862; inhibition, % (concentration not given with the values);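 active means every replicate at 50% or more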;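 further: 0 = median of the neutral control wells; tested in H4 reporter cells; numbers are from one replicate; inactives centre near -14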
Sa ugtP lethal = growth inhibition of S. aureus ugtP deletion strain; 0.54% of 330,000 active; AID 1259309; S. aureus RN4220 ugtP deletion, OD600 growth, 16 h; some inactives read as strong as hits; growth inhibition, % (no concentration beside the values);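 active means z-score under -3 and OD600 up to 0.15 on both plates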;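 further: plate controls were untreated wells for no effect and antibiotic for full effect; wells of about 80 µL received 100 nL stock; the first replicate is given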
Bead autofluor = counter-screen for toxin protease inhibitors: compound fluorescence; compound autofluorescence counterscreen, microsphere flow cytometry; active compounds read high; 3.1% of 360,000 active; fluorescence intensity (no concentration beside the values);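 active means at least 3 SD above the mean of all compounds, about 16000 in these data; inconclusive means too few beads counted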;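 further: 100 nL of 1 mM stock went into each well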
Mtb hypoxia inh growth = second read-out of Mtb hypoxia inh, no call of its own (marks repeat the call); growth inhibition, %; measured here: M. tuberculosis growth (absorbance);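 0% = vehicle and 100% = reference antibiotic; read after six days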
Active calls of the source: *; ? = inconclusive; · = not tested or not shown; & = joins results of further samples.

SMILES	Mtb hypoxia inh	Mtb hypoxia inh growth	RN4220 kill	BJeLR lethal	PrP UTR inh	Sa ugtP lethal	Bead autofluor
C[C@H](NC(=O)Cn1cncn1)c1ccccc1	4	7	4.6	6	-22	10	17083*
Cc1cc(=O)oc2c(CN3CC(C)OC(C)C3)c(O)c(Cl)cc12 (stereo not drawn)	10	3	3.6	3	-16	8	2606
COc1ccccc1NC(=O)N1CCC(C(=O)c2ccc(Cl)cc2)CC1	-4	-6	-2.0	-4	-28	0	5319
CCOC(=O)C1CCN(c2ncnc3c2oc2ccc(Br)cc23)CC1	0	-2	3.4	-8	-24	15	22738*
CCn1c2c(c3cc(C(=O)O)ccc31)CCCC2=O	·	·	1.9	1	-5	7	3772
Cn1c(CSCC(=O)Nc2ccccc2)nnc1SCc1ccccc1	-9	-7	-1.5	6	-16	-8	4340
CCOC(=O)c1c(C)nc2sc3c(c2c1-c1ccc(OC)cc1)NC(c1ccc(OC)cc1)NC3=O (stereo not drawn)	4	-3	-18	-3	-11	-6	2998
COCCNc1nc2c(c(=O)n(C)c(=O)n2C)n1Cc1cccc(C)c1	2	8	1.7	12	-14	-1	3615
CN(C(=O)c1cccnc1)c1nc(-c2ccccc2)cs1	3	-3	-2.8	2	-45	-4	4102
CC(C)NC(=O)/C(C#N)=C\c1ccc(N(C)C)c(Br)c1	·	·	·	5	-8	·	2606
CN(C(=O)COC(=O)C(Cc1ccccc1)NC(=O)c1ccccc1)c1ccccc1 (stereo not drawn)	-1	1	4.1	-3	-7	9	2364
CC(C)CNC(=S)Nc1ccc(S(N)(=O)=O)cc1	1	-1	2.4	-5	-18	9	1995
CCOC(=O)c1sc(NC(=O)CCN2CCC(C)CC2)c(C(=O)OCC)c1C	·	·	·	5	-20	·	3547
Cc1ccc(CNC(=O)COC(=O)CCOc2ccc(C)cc2)cc1	1	-2	3.0	-7	-12	5	?
CCOc1ccc(N(CC(=O)NC2CCCC2)C(=O)CSc2nnc(COc3ccccc3)o2)cc1	8	6	0.5	-4	-19	6	7274
Cc1cc(=O)[nH]c(SCC(=O)Nc2ccc(Br)cc2)n1	15	6	6.6	15	-15	-4	4041
CCOC(=O)C1=C(C)N(C)C(=O)NC1c1cccc(O)c1 (stereo not drawn)	·	·	1.2	8	-4	-1	4680
Cc1ccc[n+](CC(=O)Nc2cc(C(F)(F)F)ccc2N2CCOCC2)c1	10	20	7.1	-5	-14	5	3926
CN(c1ccccc1)S(=O)(=O)c1ccc(Cl)c(C(=O)Nc2nc3ccccc3[nH]2)c1	-4	5	7.5	6	-17	-12	10566
COc1cccc(CN2CCN(Cc3ccc(OC)c(OC)c3)CC2CCO)c1 (stereo not drawn)	0	2	4.2	9	-23	7	2399
CC12CN3CC(C)(CN(C1)C3c1ccncc1)C2=O (stereo not drawn)	1	7	-7.6	10	-22	-3	2748
COc1cc(C)c(C(C)C)cc1S(=O)(=O)n1cnc(C)c1	3	1	0.2	11	-41	17	5145
Cc1[nH]n(-c2ccccc2)c(=O)c1/C=N/n1c(C)nc2ccccc2c1=O	·	·	·	-6	-23	·	3516
COc1ccc(CC(=O)NCC2CCCCC2)cc1OC	12	9	0.6	-1	-23	4	3507
CC(C)C(NC(=O)c1ccccc1)C(=O)NC1=NCCS1 (stereo not drawn)	2	13	1.2	-2	-6	2	9405
Cc1ccc(CNS(=O)(=O)c2cc3c4c(c2)CCN4C(=O)CC3)cc1	3	8	5.3	-5	-4	2	5889
CCOC(=O)CCc1c(C)c2ccc(OC3CCCCC3=O)c(C)c2oc1=O (stereo not drawn)	-12	0	4.0	-12	-16	8	3800
Cc1cc(C)cc(NC2=C(N)C(=O)c3ccccc3C2=O)c1	-3	5	11	-6	-65	7	3373
COc1ccc(Br)cc1CNC(=O)CCNC(=O)Cn1ccc2ccccc2c1=O	9	-12	-3.0	5	-11	5	3394
O=C(c1cnc2n(c1=O)CCS2)N(C1CCCCC1)C1CCCCC1	-7	-5	19	-11	-7	17	5785
COC(=O)c1ccccc1NC(=O)C1CC=CCC1C(=O)O (stereo not drawn)	5	7	5.1	-1	-26	5	3678
CCN(CC)CCN1C(=O)c2ccccc2NC1c1ccc(F)cc1 (stereo not drawn)	-2	-4	-2.8	0	-9	-4	9923
N/C(=N\O)c1ccc([N+](=O)[O-])s1	·	·	·	-3	-6	·	6313
COc1ccc2[nH]cc(CCN)c2c1	·	·	4.4	·	-3	10	5358
CC(=O)N1CCC2(CC1)C/C(=N\NC(=S)Nc1ccccc1F)c1cc(O)ccc1O2	·	·	·	2	-9	·	2903
Cc1ccc(NC(=O)Cc2cccs2)cc1Cl	5	0	0.9	-1	-40	2	3821
O=C(CCc1nnc(-c2ccccc2)o1)NC1CCCCC1	3	10	3.5	9	-98	5	5141
CN(C)CCCN(C(=O)/C=C/c1cccs1)c1nc2c(F)cccc2s1	-2	10	-4.1	20	-14	1	5133
COc1ccc(CC(=O)NCc2cccs2)cc1OC	·	·	0.7	1	-32	-1	4662
COc1ccc2ccccc2c1/C=N/NC(=O)c1ccccc1F	·	·	·	-18	-20	·	4172

Some values from the results shown.
In Mtb hypoxia inh, `O=C(CCc1nnc(-c2ccccc2)o1)NC1CCCCC1` has 3
In Sa ugtP lethal, `COC(=O)c1ccccc1NC(=O)C1CC=CCC1C(=O)O` (stereo not drawn) has 5

(continued)
SMILES	Mtb hypoxia inh	Mtb hypoxia inh growth	RN4220 kill	BJeLR lethal	PrP UTR inh	Sa ugtP lethal	Bead autofluor
Nc1cc(=O)[nH]c(SCC(=O)Nc2ccc(S(=O)(=O)N3CCCC3)cc2)n1	-2	-12	-2.6	·	-12	-7	3610
Nc1ccccc1C(=O)NC1CCCCNC1=O (stereo not drawn)	3	7	3.0	-15	-14	10	·
Cc1ccc(CCNC(=O)CC(C)CC2=NS(=O)(=O)c3ccccc3N2)cc1 (stereo not drawn)	3	5	4.5	0	-10	9	5784
CCN(C(=O)COC(=O)c1ccc([N+](=O)[O-])o1)C1CCCCC1	·	·	22	·	-16	24	8542
CC(NC(=O)CN(C)S(=O)(=O)c1cnc[nH]1)c1ccccc1 (stereo not drawn)	3	2	-2.0	2	-26	6	4116
O=C(O)c1ccc(C=NNc2nc(N3CCCCC3)nc(N3CCCCC3)n2)cc1	1	-2	3.8	·	·	4	·
Cn1c(C(=O)NCCc2c[nH]c3ccccc23)cc2sccc21	3	8	13	-2	-27	5	4736
CCNC(=O)c1oc2c(c1C)C(=O)CC(C)(C)C2	8	13	10	6	-21	-10	20892*
O=C(O)CCCCCNS(=O)(=O)c1ccc2c(c1)OCCO2	9	2	1.1	8	-12	9	4002
CC(OC(=O)CCN1C(=O)C2CC=CCC2C1=O)C(=O)Nc1ccc(F)cc1 (stereo not drawn)	-12	-6	0.6	·	-13	3	4956
Nc1c(C(=O)c2ccc(Cl)cc2)sc2nc3c(cc12)CCC3	8	7	-1.1	5	-63	-14	2521
N#Cc1sc(=O)[nH]c1Cl	22	11	6.0	9	-28	-1	3891
Cc1nonc1CN(C)C(=O)CC1C(=O)NCCN1Cc1ccc(F)c(F)c1 (stereo not drawn)	-13	-12	-1.7	-2	-30	-1	4141
O=C(NCC(=O)N(c1ccccc1)C(C(=O)NCC1CCCO1)c1ccccc1)c1ccco1 (stereo not drawn)	7	8	5.1	-4	-17	6	4685
CCn1c(SC(C)C(=O)O)nnc1-c1cccnc1 (stereo not drawn)	-2	6	6.9	7	-24	-2	6356
CC(NC(=O)COc1ccc(S(=O)(=O)N2CCCC2)cc1)c1ccccc1 (stereo not drawn)	14	7	0.1	6	-20	8	3698
O=C1CC(c2ccco2)Cc2nc(N3CCc4ccccc4C3)ncc21 (stereo not drawn)	0	-3	5.7	12	-10	34	2541
Cc1cc(C)n2nc(CCCCc3nc4nc(C)cc(C)n4n3)nc2n1	9	1	2.4	7	·	5	·
CCN1CCN(CC(=O)N2c3ccccc3Sc3ccccc32)CC1	6	-9	3.7	14	9	5	2983
CC(OC(=O)Cc1coc2ccc3ccccc3c12)C(=O)NC(N)=O (stereo not drawn)	8	2	1.3	-1	-19	8	4180

Grouped by structure, the entries above containing a nitro group on carbon.
SMILES	Mtb hypoxia inh	Mtb hypoxia inh growth	RN4220 kill	BJeLR lethal	PrP UTR inh	Sa ugtP lethal	Bead autofluor
N/C(=N\O)c1ccc([N+](=O)[O-])s1	·	·	·	-3	-6	·	6313
CCN(C(=O)COC(=O)c1ccc([N+](=O)[O-])o1)C1CCCCC1	·	·	22	·	-16	24	8542

Other results follow.
SMILES	Mtb hypoxia inh	Mtb hypoxia inh growth	RN4220 kill	BJeLR lethal	PrP UTR inh	Sa ugtP lethal	Bead autofluor
COc1cc(C2C(C#N)=C(N)Oc3cc(C)oc(=O)c32)ccc1OC(=O)N1CCOCC1 (stereo not drawn)	8	6	4.5	-3	-20	5	5432
COc1ccc(CNc2nnnn2C)c(OC)c1	13	7	1.2	1	-13	11	3685
Cc1nn(Cc2ccccc2)c(C)c1NC(=O)c1cc(-c2ccco2)on1	10	13	1.2	2	1	-3	20385*
CN(c1ccccc1)S(=O)(=O)c1cccc(NC(=O)CC(C)(C)C)c1	2	4	5.0	-2	4	2	2446
COc1ccc(C2NC(=O)Cc3cc(OC)c(OC)cc32)cc1OC (stereo not drawn)	-15	-22	1.8	-2	-27	7	4566
CS(=O)(=O)Nc1ccccc1C(=O)Nc1cc(Cl)cc(Cl)c1	4	6	77	21	-27	62	20510*
CCC(=Nc1ccccc1)C1=C(O)CCCC1=O	-3	12	-3.0	-16	·	-1	4292
COc1ccc2c(c1)C(=O)C(=O)N2	-3	9	-0.7	-4	-7	-4	2336
Cc1cc(C)c(C)c(S(=O)(=O)N2CCC(C(=O)OCC(=O)N3c4ccccc4NC(=O)C3(C)C)CC2)c1C	9	11	1.9	6	-6	-12	24651*
CCN(CC)c1ccc(NC(=O)C2CC3CCC2C3)cc1 (stereo not drawn)	11	16	-8.5	13	-55	-7	2606
CC(=O)c1sc2nc(SCC(=O)N3CCCCC3)[nH]c(=O)c2c1C	·	·	4.5	0	-39	-5	2624
CC(=O)c1ccccc1NC(=O)COC(=O)c1cc2ccccc2[nH]1	2	-10	8.4	·	-15	4	2984
O=C1NCC(c2ccccc2)OC(=O)C(Cc2ccc(F)cc2)CC=CCC1CC(=O)N(CCO)Cc1ccccc1 (stereo not drawn)	-2&8&-1&0&-3&3	5&-2&5&5&6&9	0.1&0.0&-4.5&-2.8&3.7&-5.4	·	·	4&12&7&2&-7&-4	·
O=C1N/C(=N\N=C\c2ccccn2)SC1Cc1cccc(SC(F)F)c1 (stereo not drawn)	·	·	·	18	-11	·	11205
CCc1ccc(C(O)(CC(C)C)C(CN2CCOCC2)c2ccccc2)cc1 (stereo not drawn)	-10	0	-1.2	1	-1	-6	3763
CCn1cc(/C=C(\NC(=O)c2ccccc2F)C(=O)NCCN2CCOCC2)c2ccccc21	11	2	2.9	-6	-16	-5	5199
COc1ccc(CC(=O)Nc2ccc(S(=O)(=O)Nc3nccs3)cc2)cc1	23	10	4.5	0	-17	-10	5688
Cc1cccc2cc(CN(C(=O)c3cnccn3)C3CCCCC3)c(Cl)nc12	6	7	12	-5	0	9	5155
CC(=O)c1ccc(NC(=O)C2CCCN(C(=O)c3ccc(Cl)cc3)C2)cc1 (stereo not drawn)	-7	2	0.6	-1	-21	5	4101
CCN(CC)S(=O)(=O)c1ccc2c(c1)N(CC(=O)NCC1CCCO1)C(=O)CO2 (stereo not drawn)	11	7	5.2	3	-23	9	5735
CC1CC(OP(O)(=S)c2ccc(N(C)C)cc2NC(=O)c2cccs2)CC(C)(C)C1 (stereo not drawn)	18	6	7.8	3	-13	24	4382
COc1cc(Cl)c(NS(=O)(=O)c2ccc(-c3ccc(=O)[nH]n3)o2)c(OC)c1	3	0	1.0	4	-20	2	5286

As a working copy, four of the compounds above.
SMILES	Mtb hypoxia inh	Mtb hypoxia inh growth	RN4220 kill	BJeLR lethal	PrP UTR inh	Sa ugtP lethal	Bead autofluor
N#Cc1sc(=O)[nH]c1Cl	22	11	6.0	9	-28	-1	3891
Cc1nonc1CN(C)C(=O)CC1C(=O)NCCN1Cc1ccc(F)c(F)c1 (stereo not drawn)	-13	-12	-1.7	-2	-30	-1	4141
O=C(NCC(=O)N(c1ccccc1)C(C(=O)NCC1CCCO1)c1ccccc1)c1ccco1 (stereo not drawn)	7	8	5.1	-4	-17	6	4685
CCn1c(SC(C)C(=O)O)nnc1-c1cccnc1 (stereo not drawn)	-2	6	6.9	7	-24	-2	6356

Bioassay records (PubChem)
